Hedgehog inh – blocks Sonic Hedgehog signaling; Shh-LIGHT2 Gli-luciferase reporter, 30 h; inhibition, % (test concentration not listed); hit rate 2.1% among 22,000; AID 2313;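 active = replicate mean of 65% or more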;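 note: pathway switched on by Shh-conditioned medium diluted 1 in 25 in low serum; 100 nL library stock added to about 40 µL; 0% = median of neutral wells and 100% = positive control level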
PD-1 reverse act – activators reversing PD-1 mediated T-cell inhibition | primary human CD4 T cells, PD-L1 beads, CellTiter-Glo 96 h | activation, % (concentration not given with the values) | 29,000 tested, under 10 active | AID 2316;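 active = replicate mean of 50% or more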;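 note: 0% = median vehicle wells and 100% = positive control; 100 nL library stock added to about 50 µL; numbers are from one replicate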
MITF inh – MITF inhibition; TRPM1 promoter luciferase, luminescence, 24 h; inhibition, % (no concentration beside the values); hit rate 0.28% among 37,000; AID 2240;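 active = most replicates at 85% or more, or half of them and the mean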;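 note: human melanocyte line stably carrying TRPM1 promoter luciferase reporter; 0% = vehicle wells and 100% = a positive control; the first replicate is given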
YB-1 expr inh – YB-1 expression inhibition. U2OS, qRT-PCR YB-1 vs CDIP delta delta Cp, 16 h; active compounds read high; zero = DMSO, each unit about twofold. delta delta Cp (YB-1 minus CDIP) (test concentration not listed). hit rate 0.37% among 30,000;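 active = delta delta Cp rounded down to an integer at or above 3, about 3 SD of DMSO wells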;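 note: higher means less YB-1 transcript or more CDIP transcript relative to DMSO; stock transfer was 100 nL into about 100 µL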
Starred values were filed as active, the others as inactive; · = not tested or not shown.

1: C[C@H]1CN([C@@H](C)CO)C(=O)Cc2cc(NC(=O)Nc3ccc(C(F)(F)F)cc3)ccc2O[C@@H]1CN(C)Cc1ccc(-c2ccccc2)cc1
2: Cc1noc(C)c1S(=O)(=O)N(C)C[C@H]1Oc2c(NC(=O)C3CCOCC3)cccc2C(=O)N([C@@H](C)CO)C[C@H]1C
3: COc1ccc(S(=O)(=O)N(C)C[C@H]2OCCCC[C@@H](C)Oc3ccc(N(C)C)cc3C(=O)N([C@H](C)CO)C[C@@H]2C)cc1
4: Cn1nc(C(C)(C)C)cc1C(=O)Nc1cccnc1
5: C[C@H](CO)N1C[C@H](C)[C@@H](CN(C)C(=O)NC2CCCCC2)Oc2c(NS(C)(=O)=O)cccc2C1=O

assay / entry | 1 | 2 | 3 | 4 | 5
Hedgehog inh | -12.9 | 9.5 | 21.1 | -2.8 | -7.5
PD-1 reverse act | -0.4 | 2.5 | 1.9 | -19.8 | ·
MITF inh | 13.8 | -5.2 | -3.8 | -1.5 | -6.6
YB-1 expr inh | -0.141 | -0.0749 | -0.156 | 0.492 | 0.0396

6: Cc1noc(C)c1NC(=O)Nc1cccc2c1O[C@@H](CN(C)Cc1ccc(C(F)(F)F)cc1)[C@@H](C)CN([C@@H](C)CO)C2=O
7: COc1ccc(S(=O)(=O)Nc2ccc3c(c2)CC(=O)N([C@@H](C)CO)C[C@H](C)[C@@H](CN(C)S(=O)(=O)c2ccc(F)cc2)O3)cc1
8: CC(=O)c1ccc(NC(=O)c2ccc(CSc3ccccn3)cc2)cc1
9: O=C(CCn1cnc2ccccc2c1=O)Nc1cccc(Cl)c1Cl
10: CC(C)NC(=O)N(C)C[C@H]1Oc2ccc(NS(C)(=O)=O)cc2CC(=O)N([C@H](C)CO)C[C@H]1C

assay / entry | 6 | 7 | 8 | 9 | 10
Hedgehog inh | 13.5 | -10.7 | · | · | -4.3
PD-1 reverse act | 1.7 | · | 1.8 | -0.7 | 1.9
MITF inh | 1.6 | -12.3 | -22.8 | -9.1 | -12.7
YB-1 expr inh | 0.0767 | -0.146 | · | · | 0.25

11: C[C@H](CO)N1C[C@H](C)[C@H](CN(C)S(=O)(=O)c2ccc(F)cc2)Oc2ccc(NC(=O)CCC(F)(F)F)cc2CC1=O
12: O=C1CC(C(=O)Nc2ccc(O)c(C(=O)O)c2)C(c2ccccc2)O1 (configuration not stated)
13: OCc1cc2c(cn1)[nH]c1ccccc12
14: Cc1ccc2nc(-c3ccc(NC(=O)CSc4ncn[nH]4)cc3)sc2c1
15: C[C@@H]1CN([C@@H](C)CO)C(=O)Cc2cc(NC(=O)Nc3cccc4ccccc34)ccc2O[C@@H]1CN(C)Cc1ccc(C(F)(F)F)cc1

assay / entry | 11 | 12 | 13 | 14 | 15
Hedgehog inh | -34.3 | · | -5.8 | · | 13.0
PD-1 reverse act | 0.4 | 2.7 | · | 4.8 | -5.6
MITF inh | 19.9 | -5.5 | 3.8 | 70.0 | 37.6
YB-1 expr inh | 0.0491 | · | 0.0719 | · | -9.11

16: CC(C)NC(=O)Nc1ccc2c(c1)C(=O)N([C@H](C)CO)C[C@H](C)[C@@H](CN(C)C(=O)Nc1cccc3ccccc13)O2
17: O=C(CSc1nnc(-c2ccccc2O)n1-c1ccccc1)N1CCc2ccccc21
18: CC(C)NC(=O)Nc1ccc2c(c1)CC(=O)N([C@H](C)CO)C[C@@H](C)[C@@H](CN(C)C(=O)Nc1ccccc1)O2
19: C[C@@H]1CN([C@H](C)CO)C(=O)c2cccc(NC(=O)NC3CCCCC3)c2O[C@H]1CN(C)C(=O)Nc1ccc(C(F)(F)F)cc1
20: COc1ccc(OCC(O)CNC(C)(C)C)cc1 (configuration not stated)

assay / entry | 16 | 17 | 18 | 19 | 20
Hedgehog inh | -6.7 | · | -12.8 | -0.2 | 8.3
PD-1 reverse act | 1.2 | -1.7 | 1.0 | -2.2 | -0.3
MITF inh | 15.2 | 24.4 | -6.2 | -1.5 | 7.3
YB-1 expr inh | -0.326 | · | -0.653 | -0.0779 | -0.0397

21: C[C@H](CO)N1C[C@H](C)[C@@H](CN(C)C(=O)Nc2ccccc2)Oc2ccc(NS(=O)(=O)c3ccc(Cl)cc3)cc2C1=O
22: C[C@H](CO)N1C[C@H](C)[C@@H](CN(C)C(=O)NC2CCCCC2)Oc2ccc(NS(=O)(=O)c3ccc(Cl)cc3)cc2C1=O
23: COc1ccc(-n2c(SCC(=O)N3CCOCC3)nnc2-c2ccc(Cl)cc2)cc1
24: Cc1ccc(S(=O)(=O)Nc2ccc3c(c2)CC(=O)N([C@H](C)CO)C[C@@H](C)[C@H](CN(C)Cc2ccc4c(c2)OCO4)O3)cc1
25: Cc1noc(C)c1NC(=O)Nc1ccc2c(c1)C(=O)N([C@@H](C)CO)C[C@@H](C)[C@H](CN(C)CC1CCCCC1)O2

assay / entry | 21 | 22 | 23 | 24 | 25
Hedgehog inh | · | -7.6 | · | -9.3 | -19.6
PD-1 reverse act | -0.9 | -0.2 | -0.5 | · | ·
MITF inh | -4.2 | 9.3 | -9.6 | -2.4 | -0.3
YB-1 expr inh | 0.236 | 0.108 | · | 0.0519 | -0.0621

Down the list, from the results shown:
YB-1 expr inh for nos. 21–25 → 0.236, 0.108, ·, 0.0519, -0.0621

Additional entries
26: COc1ccc(CN(C)C[C@H]2OCCCC[C@@H](C)Oc3ccc(N(C)C)cc3C(=O)N([C@H](C)CO)C[C@@H]2C)cc1
27: CC(C)NC(=O)N(C)C[C@H]1Oc2c(NC(=O)Nc3cccc4ccccc34)cccc2C(=O)N([C@@H](C)CO)C[C@@H]1C
28: C[C@@H]1CN([C@H](C)CO)C(=O)c2cccc(NC(=O)C3CC3)c2O[C@@H]1CN(C)Cc1ccc(Cl)c(Cl)c1
29: Cc1cc(C)c(S(=O)(=O)NCC(=O)Nc2cccc(Cl)c2Cl)c(C)c1
30: C[C@H]1CN([C@@H](C)CO)C(=O)c2cc(NS(=O)(=O)c3ccccc3)ccc2O[C@H]1CN(C)Cc1ccc2c(c1)OCO2

assay / entry | 26 | 27 | 28 | 29 | 30
Hedgehog inh | -11.4 | -12.1 | 78.4* | · | ·
PD-1 reverse act | · | -1.0 | -0.6 | -2.8 | -6.7
MITF inh | 0.5 | 13.4 | -3.5 | -21.7 | -0.9
YB-1 expr inh | -0.241 | 1.23 | -1.35 | · | -0.289

31: C[C@H]1CN([C@@H](C)CO)C(=O)c2cccc(NS(=O)(=O)c3ccc(F)cc3)c2O[C@H]1CN(C)Cc1ccc(Cl)c(Cl)c1
32: C[C@H]1CN([C@@H](C)CO)C(=O)Cc2cc(N(C)C)ccc2O[C@@H]1CN(C)C(=O)Nc1ccc(F)cc1
33: CCc1cccc(C)c1NC(=O)COc1ccc(NC(C)=O)cc1
34: Cc1noc(C)c1NC(=O)N(C)C[C@H]1Oc2ccc(NC(=O)Cn3cnnn3)cc2CC(=O)N([C@@H](C)CO)C[C@@H]1C
35: Cc1cc(C(=O)Nc2cccc3c2O[C@@H](CN(C)Cc2ccc(C(=O)O)cc2)[C@@H](C)CN([C@H](C)CO)C3=O)n(C)n1

assay / entry | 31 | 32 | 33 | 34 | 35
Hedgehog inh | 5.8 | 21.8 | · | 2.7 | -49.4
PD-1 reverse act | -0.9 | -1.2 | -0.7 | 1.7 | 1.5
MITF inh | -11.0 | -19.0 | -6.2 | 0.0 | -10.1
YB-1 expr inh | 0.388 | -0.584 | · | 0.244 | -0.562

36: CC(=O)Nc1c(O)nc(SCC(=O)N(c2ccccc2)c2ccccc2)[nH]c1=O
37: C[C@@H]1CN([C@H](C)CO)C(=O)c2cc(NC(=O)c3ccncc3)ccc2O[C@H]1CN(C)Cc1ccc(C(F)(F)F)cc1
38: Cc1noc(C)c1S(=O)(=O)N(C)C[C@@H]1Oc2ccc(NS(=O)(=O)c3cccs3)cc2CC(=O)N([C@H](C)CO)C[C@H]1C
39: C[C@H]1CN([C@@H](C)CO)C(=O)Cc2cc(NC(=O)NC3CCCCC3)ccc2O[C@@H]1CN(C)C(=O)Nc1ccccc1
40: C[C@@H]1CN([C@@H](C)CO)C(=O)c2cc(NC(=O)Nc3cccc4ccccc34)ccc2O[C@@H]1CN(C)C(=O)NC1CCCCC1

assay / entry | 36 | 37 | 38 | 39 | 40
Hedgehog inh | · | -10.6 | 47.9 | -22.3 | -24.6
PD-1 reverse act | 1.9 | 0.1 | · | · | -1.8
MITF inh | -22.3 | -0.1 | -26.6 | 20.8 | 17.3
YB-1 expr inh | · | 0.162 | 0.254 | 0.593 | 0.425

41: C[C@H](CO)N1C[C@H](C)[C@@H](CN(C)C(=O)Nc2ccc3c(c2)OCO3)Oc2ccc(NC(=O)CCCN(C)C)cc2C1=O
42: Cc1cc(C)c(OCC(=O)Nc2ncc(I)cc2C)c(Cl)c1
43: CCOc1ccc2c(c1)-c1c(ssc1=S)C(C)(C)N2C
44: C[C@H]1CN([C@@H](C)CO)C(=O)c2cc(NS(=O)(=O)c3ccc(Cl)cc3)ccc2O[C@@H]1CN(C)Cc1ccc(Cl)c(Cl)c1
45: COc1ccc(S(=O)(=O)N(C)C[C@H]2Oc3ccc(NS(=O)(=O)c4c(C)noc4C)cc3C(=O)N([C@@H](C)CO)C[C@@H]2C)cc1

assay / entry | 41 | 42 | 43 | 44 | 45
Hedgehog inh | -48.1 | · | 0.7 | 21.3 | ·
PD-1 reverse act | · | -1.2 | -1.7 | -4.5 | 2.7
MITF inh | -3.8 | -26.8 | 13.2 | 50.6 | -18.6
YB-1 expr inh | 0.209 | · | · | 0.0559 | -0.555

46: Cc1ccc(C)c(NC(=O)c2ccc(OCC(=O)Nc3cc(C(F)(F)F)ccc3Cl)cc2)c1
47: C[C@H]1CN([C@@H](C)CO)C(=O)c2cc(NC(=O)NC3CCCCC3)ccc2O[C@H]1CN(C)Cc1ccc(C(F)(F)F)cc1
48: C[C@H]1CN([C@@H](C)CO)C(=O)c2cc(NC(=O)Nc3ccccc3)ccc2O[C@@H]1CN(C)Cc1ccc2c(c1)OCO2
49: Cc1ccc(S(=O)(=O)Nc2nc(C)c(NC(=O)Nc3ccc(Cl)cc3Cl)s2)cc1
50: O=S(=O)(Cc1ccco1)Cc1nc(-c2ccc(-c3ccccc3)cc2)cs1

assay / entry | 46 | 47 | 48 | 49 | 50
Hedgehog inh | · | -41.5 | · | · | ·
PD-1 reverse act | -2.6 | -1.7 | -2.8 | 1.1 | 1.8
MITF inh | -1.7 | 15.9 | -4.0 | -37.3 | -81.7
YB-1 expr inh | · | -0.0258 | 0.389 | · | 0.523

51: CC1(C)CCc2cc(C3SCCS3)ccc2O1
52: COCCNCCn1cnc2c1c(=O)[nH]c(=O)n2C
53: CN(CC(=O)Nc1cccc2ccccc12)S(=O)(=O)c1ccc(F)cc1
54: COc1cccc2cc(C(=O)C3C(=O)C(=O)N(CCN4CCOCC4)C3c3cccc(Cl)c3)oc12 (configuration not stated)
55: C[C@H]1CN([C@@H](C)CO)C(=O)c2cccc(N(C)C)c2O[C@@H]1CN(C)Cc1ccc(Cl)c(Cl)c1

assay / entry | 51 | 52 | 53 | 54 | 55
Hedgehog inh | -77.5 | · | · | · | 3.4
PD-1 reverse act | -0.6 | 2.6 | 0.4 | -2.3 | -1.8
MITF inh | -21.2 | -4.1 | -6.7 | 13.9 | -4.8
YB-1 expr inh | -0.0264 | · | · | · | -0.071

56: COc1ccc(C2OCC3C(c4cc(OC)c5c(c4)OCO5)OCC23)cc1OC (configuration not stated)
57: C[C@@H]1CN([C@H](C)CO)C(=O)c2cccc(NC(=O)c3ccncc3)c2O[C@H]1CN(C)Cc1ccc(C(=O)Nc2ccccc2N)cc1
58: C[C@H](CO)N1C[C@H](C)[C@H](CN(C)Cc2ccccc2)Oc2c(NC(=O)Nc3ccccc3)cccc2C1=O
59: C[C@H](CO)N1C[C@H](C)[C@@H](CN(C)Cc2ccc(C(=O)Nc3ccccc3N)cc2)Oc2c(NC(=O)Nc3ccccc3)cccc2C1=O
60: C[C@H]1CN([C@@H](C)CO)C(=O)c2cc(NS(=O)(=O)c3ccccc3)ccc2O[C@H]1CN(C)Cc1ccc(C(=O)Nc2ccccc2N)cc1
61: C[C@H]1CN([C@@H](C)CO)C(=O)c2cc(NC(=O)Cc3ccccc3)ccc2O[C@@H]1CN(C)C(=O)Nc1ccc(C(F)(F)F)cc1

assay / entry | 56 | 57 | 58 | 59 | 60 | 61
Hedgehog inh | -15.2 | · | 47.8 | · | · | -1.8
PD-1 reverse act | -1.0 | -0.5 | 1.2 | -2.2 | -1.6 | -2.4
MITF inh | -30.7 | -10.8 | 6.8 | 2.4 | 5.2 | 15.4
YB-1 expr inh | 5.01* | -0.312 | 0.0831 | 0.0436 | 0.322 | 0.247

Sorted by SMILES length (falling): part of the list above.
61: C[C@H]1CN([C@@H](C)CO)C(=O)c2cc(NC(=O)Cc3ccccc3)ccc2O[C@@H]1CN(C)C(=O)Nc1ccc(C(F)(F)F)cc1
58: C[C@H](CO)N1C[C@H](C)[C@H](CN(C)Cc2ccccc2)Oc2c(NC(=O)Nc3ccccc3)cccc2C1=O
56: COc1ccc(C2OCC3C(c4cc(OC)c5c(c4)OCO5)OCC23)cc1OC (configuration not stated)

assay / entry | 61 | 58 | 56
Hedgehog inh | -1.8 | 47.8 | -15.2
PD-1 reverse act | -2.4 | 1.2 | -1.0
MITF inh | 15.4 | 6.8 | -30.7
YB-1 expr inh | 0.247 | 0.0831 | 5.01*

Screens from PubChem BioAssay.

The list is partial (hit frequency here may not be typical).
